GIV-Gai inh – inhibitors of GIV peptide binding to Galpha-i3, primary screen, biochemical, fluorescence polarization, FITC-GIV GBA peptide, rat Galphai3; Guanine nucleotide-binding protein G(i) subunit alpha-3 (Rattus norvegicus), P08753; 90 min; stronger effect = lower value; scaled: aluminum fluoride 0%, vehicle 100%; percent of control (FP), % (concentration not given with the values); 0.42% of 210,000 active; AID 1224905, 2016;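 active = replicate mean at 85% of control or lower, very high polarization wells dropped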;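 also: wells of about 15 µL received 100 nL stock; the first replicate is given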
Target sequence (P08753 whole entry, looked up): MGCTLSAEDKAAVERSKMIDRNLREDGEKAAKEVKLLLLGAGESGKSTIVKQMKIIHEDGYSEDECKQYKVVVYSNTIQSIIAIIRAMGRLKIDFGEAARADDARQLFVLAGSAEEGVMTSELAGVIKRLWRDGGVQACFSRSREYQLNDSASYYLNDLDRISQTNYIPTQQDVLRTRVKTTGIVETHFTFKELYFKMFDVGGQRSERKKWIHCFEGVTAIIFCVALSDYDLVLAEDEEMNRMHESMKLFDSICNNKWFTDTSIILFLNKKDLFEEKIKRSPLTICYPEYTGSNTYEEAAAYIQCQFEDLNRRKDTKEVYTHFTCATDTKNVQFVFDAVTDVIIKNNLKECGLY
* marks the source's active call; other numbers are inactive results. A portion of the library. The share of hits here may be higher or lower than overall.

Sample of the layout:
SMILES | GIV-Gai inh
CCc1ccc(NC(=O)CSC2=C(C#N)C(c3cccs3)C3=C(CCCC3=O)N2)cc1 (configuration not stated) | 111
Cc1ccc(C2(O)CN(c3ccccc3C)C3=[N+]2CCCS3)cc1 (configuration not stated) | 106
COc1ccc(C(=O)c2sc3nc4c(c(-c5ccco5)c3c2N)CCCC4)cc1 | 123

The list itself, from the start:
SMILES | GIV-Gai inh
CCc1ccc(NC(=O)CSC2=C(C#N)C(c3cccs3)C3=C(CCCC3=O)N2)cc1 (configuration not stated) | 111
Cc1ccc(C2(O)CN(c3ccccc3C)C3=[N+]2CCCS3)cc1 (configuration not stated) | 106
COc1ccc(C(=O)c2sc3nc4c(c(-c5ccco5)c3c2N)CCCC4)cc1 | 123
O=C(Nc1ccc2c(c1)S(=O)(=O)c1cc(NC(=O)c3cccs3)ccc1-2)c1cccs1 | 113
CC1CCN(C(=O)C2CCN(c3cncnc3N3CCOCC3)CC2)CC1 | 101
CCc1ccc2c(c1)C1(NN=C(c3ccc(C)cc3)S1)C(=O)N2 (configuration not stated) | 99
O=C1C=C2c3ccccc3CC3(CCCC3)N2C1=O | 112
O=C(c1ccc(-c2nc(-c3ccc(F)cc3)no2)cc1)N1CCc2ccccc21 | 105
Cc1nnc(-c2ccc(S(=O)(=O)N3CCN(C4CCCCC4)CC3)o2)o1 | 105
O=C(NCc1ccc2c(c1)OCO2)c1ccc(-c2cccc(F)c2)nc1 | 111
Cc1ccccc1N1C(=O)/C(=C/c2ccc(-c3cc(Cl)ccc3Cl)o2)C=C1c1ccccc1 | 116
COc1cc(NC(=O)CCc2c(C)n(C)c3cc(-c4ccccc4OC)nn3c2=O)cc(OC)c1 | 110
O=C(C1CCCN(Cc2cccs2)C1)N1CCCC1 (configuration not stated) | 103
Cc1ccc(NC(=O)Nc2ccc(CCc3nc4ccccc4n3C)cc2)c(C)c1 | 101
CC(C)(C)n1nc2c(c1NC(=O)c1cccc(Br)c1)CS(=O)(=O)C2 | 97
c1cc(CNc2nc(C3CC3)nc3c2CCC3)ccn1 | 100
O=S(=O)(Nc1ccc2c(c1)OCCO2)c1ccc(-c2nnc(C3CCC3)o2)o1 | 110
Cc1ccc(NC(=O)c2ccc3c(c2)N(Cc2ccc(F)cc2)C(=O)CS3)cc1Cl | 104
CCc1cccc(-n2nnnc2N2CCN(C(=O)Nc3cccc(C)c3)CC2)c1 | 104
CCCc1cc(C2CCCN2Cc2ccc(OCC)cc2)no1 (configuration not stated) | 103
Cc1ccc(NC(=O)c2ccc(-n3nc(N4CCCC4)ccc3=O)cc2)nc1 | 101
O=C(Nc1cnc(N2CCN(c3ccccc3)CC2)c(C(=O)O)c1)c1ccccc1 | 109
COc1ccccc1NC(=O)NCc1ccnc(N2CCCCC2)c1 | 108
Fc1ccc(C2C=C(c3ccc4c(c3)OCO4)Nc3ncnn32)cc1 (configuration not stated) | 100
COc1ccccc1Oc1cc(-c2cccc(C(=O)Nc3cccc(F)c3)c2)ncn1 | 115

Later entries
SMILES | GIV-Gai inh
CCn1cc(C2CC(=O)Nc3c2c(C)nn3-c2nc3ccc(OC)cc3s2)c(C)n1 (configuration not stated) | 106
CNC(=O)c1ccc(-c2nc3cc(NS(=O)(=O)c4ccc5c(c4)OCCO5)ccc3n2C)cc1 | 96
Cn1cc(C(=O)Oc2ccc3cnccc3c2)c2ccccc2c1=O | 101
COC(=O)C(NC(C)=O)(Nc1ccc(Br)cn1)C(F)(F)F (configuration not stated) | 109
CC(C)CCNC(=O)c1cccc(-c2cc(N3CCCC3)ncn2)c1 | 106
CN1C2C=C3C(C#N)=C(N)C(C#N)(C#N)C(c4ccccc4F)C3C1CC2 (configuration not stated) | 119
CCN1CCN(S(=O)(=O)c2ccc(-c3ccno3)s2)CC1 | 95
O=C(NC1CCCCC1)C1CCN(c2ncnc3onc(-c4ccc(F)cc4)c23)CC1 | 103
COc1ccc(/C=C2\C(=O)NC(=O)N(c3ccc(Br)c(C)c3)C2=O)c(OC)c1 | 96
CC(=O)Nc1nc(SCCC(=O)O)n[nH]1 | 103
Clc1ccccc1C1Nc2cccc3cccc(c23)N1 | 118
CCc1onc(C)c1C1CCCN1C(=O)Nc1sc2c(c1C(=O)OC)CCCC2 (configuration not stated) | 102
CCOC(=O)c1sc(/N=C/c2c(C)[nH]n(-c3ccc(C)cc3)c2=O)c(C#N)c1C | 111
COc1ccc(OC)c(Nc2nc(N(C)C)nc3c2cnn3-c2ccccc2)c1 | 98
Nc1ccc2nc(SCC(=O)N3c4ccccc4CCc4ccccc43)sc2c1 | 101
CCCc1nnc2n1N=C(c1ccc(C)cc1)CS2 | 112
CCOC(=O)C1CCN(c2nc(C)nc3sc4c(c23)CCCC4)CC1 | 112
COc1ccc(N2C(=O)CSC2c2coc3ccccc3c2=O)cc1Cl (configuration not stated) | 104
CCOC(=O)N1CC=C2C(C#N)=C(N)C(C#N)(C#N)C(c3cccs3)C2C1 (configuration not stated) | 107
CCC(C)NC(=O)c1cc2cc(S(=O)(=O)N(C)C)ccc2n1Cc1ccncc1 (configuration not stated) | 100
O=C(Nc1sc2c(c1C(=O)Nc1ccc(Br)cc1)CCCCC2)c1cccnc1 | 107
COc1ccc(C2C(C(=O)OC(C)C)=C(C)N=c3s/c(=C/c4cn(C)c5ccccc45)c(=O)n32)cc1 (configuration not stated) | 111
COc1ccc(Cn2c(CNC(=O)C3CC3)nc3cccnc32)cc1 | 112
N#CC1=C(N)n2c(s/c(=C\c3ccccc3)c2=O)=C(C#N)C1c1ccccc1 (configuration not stated) | 105
CCSc1nc2ccc(Nc3nc(N4CCOCC4)nc(N4CCOCC4)n3)cc2s1 | 106

5 entries drawn at random from those above, as already listed:
SMILES | GIV-Gai inh
Cc1nnc(-c2ccc(S(=O)(=O)N3CCN(C4CCCCC4)CC3)o2)o1 | 105
CCc1ccc2c(c1)C1(NN=C(c3ccc(C)cc3)S1)C(=O)N2 (configuration not stated) | 99
CNC(=O)c1ccc(-c2nc3cc(NS(=O)(=O)c4ccc5c(c4)OCCO5)ccc3n2C)cc1 | 96
CCn1cc(C2CC(=O)Nc3c2c(C)nn3-c2nc3ccc(OC)cc3s2)c(C)n1 (configuration not stated) | 106
CC(C)(C)n1nc2c(c1NC(=O)c1cccc(Br)c1)CS(=O)(=O)C2 | 97

(list continues)
SMILES | GIV-Gai inh
CCCCCCCCCCCOCC1O[C@@H]2OC(C)(C)O[C@@H]2[C@H]2OC(C)(C)O[C@@H]12 (some centres not stated) | 105
COc1cc(NC(=O)c2cc([N+](=O)[O-])ccc2N2CCN(C)CC2)c2ncccc2c1 | 108
Cc1nn(-c2ccccc2)cc1C(=O)N1CCC(CC(=O)NCc2cccnc2)CC1 | 97
Cc1ccc(C)c(-n2c(CNC(=O)c3ccc(S(=O)(=O)N(C)C)cc3)nnc2SCC(=O)N2CCc3ccccc32)c1 | 106
Cn1nccc1-c1nc(-c2ccc(Oc3ccc(Cl)cc3)cc2)no1 | 100
CCc1nc(CN2C(=O)COc3ccc(S(=O)(=O)N(CC)CC)cc32)no1 | 94
O=c1nc2cccc3c2=c(/c1=C(\O)c1ccccc1)c1ccccc1c3=O | 103
CCOc1cc(C2C3=C(CC(C)(C)CC3=O)N(C)C3=C2C(=O)CC(C)(C)C3)ccc1OCc1ccccc1 | 105
O=C(NCc1cccs1)c1cnn2c(C(F)(F)F)cc(-c3ccc(Br)cc3)nc12 | 104
CC(C)NC(=O)C1(c2ccccc2)CCCC1 | 128
NC(=O)C1CCN(C(=O)c2ccc3c(=O)n(-c4ccc(F)cc4)c(SCC(=O)c4ccc(Cl)cc4)nc3c2)CC1 | 105
Cc1cc2nc(-c3ccccc3)c(-c3ccccc3)nc2cc1C | 108
CCOC(=O)C1=CN(Cc2ccc(OC)cc2)C=C(C(=O)OCC)C1c1cc(OC)c(O)c(OC)c1 | 106
N#CC1=C(N)S[C@@H](C(=O)c2ccccc2)[C@@H]1c1cccnc1 | 112
O=C(c1cc(Cl)cc(Cl)c1)N1c2ccccc2Sc2ccc(C(F)(F)F)cc21 | 106
COC(=O)c1ccc2c(=O)n(CCc3ccc(S(N)(=O)=O)cc3)c(SCC(=O)Nc3cccc(OC)c3)nc2c1 | 104
COc1cccc(CSc2ccc(S(=O)(=O)N3CCOCC3)cc2C(=O)NCc2ccc3c(c2)OCO3)c1OC | 100
c1cc(-c2nc3c(c(N4CCOCC4)n2)CCC3)ccn1 | 107
Cc1ccc(-c2nc3sc(CCNC(=O)c4ccccc4Br)c(C)n3n2)cc1 | 104
O=C(Nc1cccnc1)c1nn2c(C(F)(F)F)cc(-c3ccco3)nc2c1Br | 104
CC(C)C(=O)NCCc1csc(C2CCN(C(=O)C3CCC3)CC2)n1 | 97
O=C(C1CC(=O)N(C2CCCC2)C1)N1CCOCC1 (configuration not stated) | 98
CCC(=O)N1CCc2cc(N3CC(C(=O)NC4CC4)CC3=O)ccc21 (configuration not stated) | 111
COC(=O)c1cc(C(=O)OC)cc(-n2c(/C=C\c3ccc(F)cc3)nc3ccccc3c2=O)c1 | 103
Cc1nc2n(c(=O)c1C)CCN2CC(=O)NCc1cccs1 | 102

Additional compounds:
SMILES | GIV-Gai inh
O=c1c(-c2cccc(Cl)c2)c(C(F)(F)F)oc2c(CN3CCOCC3)c(O)ccc12 | 111
CCN1CCN(S(=O)(=O)c2ccc3c(c2)C(C)(C)CN3CC(=O)N2CCCC2)CC1 | 109
Cc1cc(C2CCCN2Cc2ccc(C)c(C)c2)no1 (configuration not stated) | 106
O=C(NCCC1=CCCCC1)C1CCN(c2cncnc2N2CCCC2)CC1 | 103
COc1ccc2oc(C(C)=O)c(N)c2c1 | 106
Cc1nc(-c2cc(S(=O)(=O)Nc3cccc(Cl)c3)c(C)s2)sc1C | 100
COCCCNC(=O)c1cc(S(=O)(=O)N2CCOCC2)ccc1Sc1ccc(Br)cc1 | 94
CCOc1ccccc1N/C(SCc1ccc(Cl)cc1)=C(/C#N)C(=O)NCc1cccs1 | 104
CCOC(=O)c1[nH]c(C)c(CN(Cc2ccc(C)cc2)C(=O)c2cccnc2)c1C | 100
COc1ccc(C2=NN(C(=O)CSc3nnc(CNC(=O)c4ccco4)n3C)C(c3ccc(C)cc3)C2)cc1 (configuration not stated) | 101
COC(=O)c1cn[nH]c1NC(=O)CSc1nc2[nH]ncc2c(=O)n1-c1ccc(Cl)cc1Cl | 104
COC(=O)c1cc(N2C(=O)C3C4c5ccccc5C(C)(c5ccccc54)C3C2=O)ccc1Cl (configuration not stated) | 100
O=C(Cn1ncc2c(N3CCOCC3)ncnc21)NCCC1=CCCCC1 | 98
CC1=NN(c2ccccc2)C(=O)C1/C=C1/C(=O)NC(=S)N(c2ccc(C)cc2)C1=O (configuration not stated) | 105
CCC(C)(C)C1CCc2oc3ccc(NS(=O)(=O)c4ccc(C)cc4)cc3c2C1 (configuration not stated) | 112
COc1ccc(C2CC(c3ccc(Br)cc3)=NN2C(=O)CSC2=NN3CCCC(=O)N=C3S2)cc1 (configuration not stated) | 92
COc1ccc(N2C(=O)C3CCC(C)(C2=O)C3(C)C)cc1 (configuration not stated) | 109
Cc1ccc(C2CC(C(F)(F)F)n3nc(C(=O)Nc4cccnc4)cc3N2)cc1 (configuration not stated) | 107
C=CCOc1ccc(C2C(C(=O)OCC)=C(C)N=c3s/c(=C/c4ccc(C)o4)c(=O)n32)cc1OCC (configuration not stated) | 106
CCSc1nnc(NC(=O)CSc2nnc(CNC(=O)c3cccs3)n2-c2ccc(Cl)c(Cl)c2)s1 | 106
O=C(Cn1nc2c3sccc3ncn2c1=O)Nc1ccc(F)cc1 | 106
CC1SC2(C(=O)Nc3ccccc32)N(c2cccc(Cl)c2)C1=O (configuration not stated) | 110
CCCn1cnnc1C1CCCN(C(=O)c2cccn2C)C1 (configuration not stated) | 103
O=C(NCc1ccccc1Cl)c1cccn2c(=O)c3ccccc3nc12 | 108
COc1ccc(N2CC(C(=O)OCCN(C)C3=NS(=O)(=O)c4ccccc43)CC2=O)cc1 (configuration not stated) | 104

New compounds follow:
SMILES | GIV-Gai inh
N#CCCSc1nnc(-c2ccncc2)n1-c1ccccc1 | 100
N#CC1=C(N)Oc2n[nH]c(-c3ccc(Br)cc3)c2C12C(=O)N(CC(=O)O)c1ccccc12 (configuration not stated) | 103
CCOC(=O)C1=C(N)n2c(s/c(=C\c3cccc(Br)c3)c2=O)=C(C(=O)OCC)C1c1cccc(Br)c1 (configuration not stated) | 122
Cn1nnc2c(Nc3ccc(Br)cc3)ncnc21 | 99
Cc1csc(-c2cc(S(=O)(=O)Nc3ccc(F)cc3F)cn2CC(=O)N2CCCC2)n1 | 104
Cc1cc(-n2c(SCC(=O)Nc3cccc(C(F)(F)F)c3)nc3n[nH]c(C)c3c2=N)ccc1Cl | 108
COc1c(Cl)cc(Cl)cc1C1N(Cc2ccccc2)CCN1Cc1ccccc1 | 109
CSc1nc2ccc(NS(=O)(=O)c3ccc4c(c3)OCCO4)cc2s1 | 101
Cc1cc(-c2[nH]c3c(c2-c2cc(C)sc2C)c(=O)n(C)c(=O)n3C)c(C)s1 | 100
Cc1ccc(NC(=O)/C(=C\c2ccc3c(c2)OCO3)NC(=O)c2ccccc2Br)cc1Cl | 116
O=C(C1=NN(c2ccccc2)C2(S1)SC(c1ccc(Br)cc1)(c1ccc(Br)cc1)c1ccccc12)c1ccccc1 (configuration not stated) | 117
COc1ccc(OC)c(NC(=O)c2cc3ccc(OC)cc3oc2=Nc2ccc(C(=O)O)cc2)c1 | 112

A few values from the list.
Value for COc1c(Cl)cc(Cl)cc1C1N(Cc2ccccc2)CCN1Cc1ccccc1 in GIV-Gai inh: 109
Value for COc1ccc(OC)c(NC(=O)c2cc3ccc(OC)cc3oc2=Nc2ccc(C(=O)O)cc2)c1 in GIV-Gai inh: 112
Value for O=C(C1=NN(c2ccccc2)C2(S1)SC(c1ccc(Br)cc1)(c1ccc(Br)cc1)c1ccccc12)c1ccccc1 (configuration not stated) in GIV-Gai inh: 117
Value for Cc1csc(-c2cc(S(=O)(=O)Nc3ccc(F)cc3F)cn2CC(=O)N2CCCC2)n1 in GIV-Gai inh: 104

Compound activity from PubChem.
